DUX4 txn inh = DUX4-mediated transcription inhibition; 293T-iDUX4 ZSCAN4-Gaussia luciferase reporter, 24 h; active compounds read low; activity change, negative = inhibition, % (concentration not given with the values); hit rate 0.8% among 37,000; AID 1224904;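 active means -10% or lower and over 25 points stronger than a control reporter; inconclusive means -10% or lower with a smaller gap; inactive means above -10%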;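 further: 0% = median of neutral control wells and -100% = median of positive control wells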
DUX4 txn inh difference = also measured in DUX4 txn inh; calls as there; Gaussia minus Italica difference, %; measured here: selective DUX4 reporter inhibition;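 worked out from the two reporters; negative = selective loss of the DUX4 reporter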
DUX4 txn inh control = recorded beside DUX4 txn inh, whose call it bears; activity change, negative = inhibition, %; measured here: Italica tet-on control reporter;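 0 = neutral control and -100 = positive control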
* hit, by the source's call; ? = inconclusive; . = no result given.

SMILES	DUX4 txn inh	DUX4 txn inh difference	DUX4 txn inh control
O=C(C[C@H]1C[C@H]2c3cc(NC(=O)Nc4ccc(C(F)(F)F)cc4)ccc3O[C@H]2[C@H](CO)O1)NCc1cc(F)ccc1F	-5.1	4.8	-9.9
CCC(=O)N1Cc2cc(C(=O)N3CCN(C)CC3)nc(-c3cccc(-c4cccnc4)c3)c2[C@@H]1CCO	12.0	26.4	-14.4
N#C[C@@H]1[C@@H](c2ccccc2-c2cccc(F)c2)[C@@H](CO)N1C(=O)CN1CCOCC1	20.7	4.1	16.6
COc1ccc2c3c(n(C)c2c1)[C@H](CO)N(C(=O)c1cccc(F)c1)CC31CCN(C(=O)c2cccc(F)c2)CC1	?	.	.
CS(=O)(=O)N1C[C@@H](O)COC[C@H]2O[C@@H](CC(=O)NC3Cc4ccccc4C3)CC[C@@H]21	7.5	5.5	1.9
COC(=O)N(C)C[C@H]1OCc2cnnn2CCCC(=O)N([C@@H](C)CO)C[C@@H]1C	-5.8	-8.9	3.1
O=C(C[C@@H]1C[C@H]2c3cc(NC(=O)CC4CC4)ccc3O[C@H]2[C@@H](CO)O1)NCCc1ccccc1	2.8	1.2	1.5
N#C[C@H]1[C@H](c2ccccc2)[C@@H](CO)N1C(=O)c1cccnc1	1.6	-1.0	2.6
COc1ccc2c3c([nH]c2c1)[C@@H](CO)N(C(=O)CN1CCOCC1)CC31CCN(C(C)=O)CC1	11.4	4.7	6.7
CN1C(=O)c2cc(NC(=O)Cc3ccccc3)ccc2OC[C@@H]2O[C@@H](CC(=O)NC3CCC3)CC[C@H]21	5.8	1.1	4.6
COc1ccc(NC(=O)N(C)C[C@@H]2Oc3ccc(N(C)C)cc3C(=O)N([C@H](C)CO)C[C@H]2C)cc1	0.9	1.5	-0.6
COc1ccc(CN2C[C@@H](O)COC[C@H]3O[C@H](CC(=O)NCc4ccncn4)CC[C@@H]32)cc1	9.4	3.0	6.4
C[C@H](CO)N1C[C@H](C)[C@H](CN(C)C(=O)C2CCOCC2)Oc2ncc(C#CC(C)(C)O)cc2C1=O	-2.7	-4.6	1.9
CCC(=O)N1[C@@H]2c3ccc(-c4ccccc4F)c(=O)n3C[C@@H]2[C@@H](CO)[C@@H]1C(=O)OC	9.4	8.8	0.5
CN(C)CC(=O)N1[C@H](C#N)[C@@H](c2ccc(/C=C/c3ccccc3)cc2)[C@H]1CO	7.4	3.9	3.5
COc1ccc(S(=O)(=O)N[C@H]2CC[C@@H](CC(=O)O)O[C@@H]2CO)cc1	-0.8	2.5	-3.3
CC(C)C(=O)Nc1ccc2c(c1)C(=O)N(C)[C@@H]1CC[C@@H](CC(=O)NCCCN(C)C)O[C@@H]1CO2	-1.1	6.8	-7.9
CCNC[C@@H]1[C@@H](c2ccc(-c3ccc(F)cc3)cc2)[C@@H](CO)N1C(=O)C1CC1	-0.9	-1.3	0.4
CC(=O)N1[C@H](CO)[C@@H](c2ccccc2)C12CN(C(=O)c1ccccc1)C2	4.5	0.9	3.6
CCc1nc(N2[C@H](C#N)[C@H](c3ccccc3-c3ccccc3C)[C@H]2CO)sc1C	0.4	0.3	0.2

Two of these compounds in another layout:
DUX4 txn inh	DUX4 txn inh difference	DUX4 txn inh control	mol
5.8	1.1	4.6	CN1C(=O)c2cc(NC(=O)Cc3ccccc3)ccc2OC[C@@H]2O[C@@H](CC(=O)NC3CCC3)CC[C@H]21
0.9	1.5	-0.6	COc1ccc(NC(=O)N(C)C[C@@H]2Oc3ccc(N(C)C)cc3C(=O)N([C@H](C)CO)C[C@H]2C)cc1

5 compounds out of the list, ordered by length of the SMILES, rising.
SMILES	DUX4 txn inh	DUX4 txn inh difference	DUX4 txn inh control
CC(=O)N1[C@H](CO)[C@@H](c2ccccc2)C12CN(C(=O)c1ccccc1)C2	4.5	0.9	3.6
CN(C)CC(=O)N1[C@H](C#N)[C@@H](c2ccc(/C=C/c3ccccc3)cc2)[C@H]1CO	7.4	3.9	3.5
CS(=O)(=O)N1C[C@@H](O)COC[C@H]2O[C@@H](CC(=O)NC3Cc4ccccc4C3)CC[C@@H]21	7.5	5.5	1.9
C[C@H](CO)N1C[C@H](C)[C@H](CN(C)C(=O)C2CCOCC2)Oc2ncc(C#CC(C)(C)O)cc2C1=O	-2.7	-4.6	1.9
CN1C(=O)c2cc(NC(=O)Cc3ccccc3)ccc2OC[C@@H]2O[C@@H](CC(=O)NC3CCC3)CC[C@H]21	5.8	1.1	4.6

(listing goes on)
SMILES	DUX4 txn inh	DUX4 txn inh difference	DUX4 txn inh control
COc1cccc(CN2[C@@H](CO)[C@@H](c3ccccc3)C23CN(C(=O)C2CCC2)C3)c1	-5.7	-13.9	8.2
O=C(C[C@H]1CC[C@H]2[C@@H](COC[C@H](O)CN2Cc2ccccc2)O1)NCc1ccccc1Cl	?	.	.
Cc1nn(C)cc1NC(=O)C[C@H]1CC[C@@H]2[C@@H](COc3ccc(NC(=O)NC(C)C)cc3C(=O)N2C)O1	-0.2	6.6	-6.7
O=C(N[C@H]1CC[C@@H](CCNS(=O)(=O)c2ccc(F)cc2)O[C@@H]1CO)C1CCC1	-2.1	-6.0	3.9
Cc1noc(C)c1NC(=O)N(C)C[C@H]1Oc2ccc(NC(=O)CCN3CCOCC3)cc2CC(=O)N([C@@H](C)CO)C[C@@H]1C	-2.2	-3.0	0.8
O=C(CC1CC1)N1CC[C@@H]2[C@H](CO)Nc3ccc(-c4cccc(F)c4)cc3[C@@H]21	?	.	.
C[C@H](CO)N1C[C@H](C)[C@H](CN(C)Cc2ccc(Cl)c(Cl)c2)Oc2c(NC(=O)CCCCCC(=O)Nc3ccccc3N)cccc2C1=O	2.8	-4.4	7.2
CO[C@H]1CN(C)C(=O)c2ccc(NC(=O)Nc3c(C)noc3C)cc2OC[C@H](C)N(C)C[C@@H]1C	0.9	-1.1	2.0
CN1c2ccc(-c3ccc(F)cc3)cc2[C@@H]2[C@@H](CCN2C(=O)C2CCOCC2)[C@H]1CO	?	.	.
CN(C)C(=O)c1ccc(-c2ccccc2[C@@H]2[C@@H](C#N)N(C(=O)C3CCCCC3)[C@H]2CO)cc1	8.2	3.5	4.6
COc1ccc(S(=O)(=O)N(C)C[C@@H]2OCCCC[C@@H](C)Oc3ccc(NC(=O)Nc4cccc5ccccc45)cc3C(=O)N([C@@H](C)CO)C[C@H]2C)cc1	-1.1	-2.2	1.0
O=C(Nc1nccs1)[C@H]1[C@H](CO)[C@H]2Cn3c(cccc3=O)[C@H]2N1C(=O)C1CCCC1	23.8	54.9	-31.1
COCC(=O)N(C)C[C@H]1Oc2ncc(-c3ccc(F)cc3)cc2C(=O)N([C@H](C)CO)C[C@H]1C	-2.5	-2.1	-0.4
Cc1noc(C)c1NC(=O)N(C)C[C@H]1OCCCC[C@@H](C)Oc2ccc(NC(=O)Nc3cccc4ccccc34)cc2C(=O)N([C@@H](C)CO)C[C@H]1C	-3.0	0.5	-3.4
Cc1ccc(-c2ccc([C@@H]3[C@H]4CN(C(=O)c5cccnc5)CC(=O)N4[C@H]3CO)cc2)cc1	-4.4	1.5	-5.9
CC(C)NC(=O)N1[C@@H](CO)[C@@H](c2ccccc2)C12CN(Cc1ccc(F)cc1)C2	?	.	.
COc1ccc2c3c(n(C)c2c1)[C@H](CO)N(Cc1ccc(F)cc1)CC31CN(CC2CCOCC2)C1	?	.	.
O=C(c1cnccn1)N1C[C@@H]2[C@H](c3ccccc31)[C@H](CO)N2Cc1ccc2c(c1)OCO2	-1.2	-2.5	1.3
C[C@H](CO)N1C[C@H](C)[C@H](CN(C)C(=O)Cc2ccncc2)Oc2cc(-c3cncnc3)ccc2S1(=O)=O	1.9	3.6	-1.7
COc1cccc(C(=O)Nc2ccc3c(c2)C(=O)N(C)[C@@H]2CC[C@H](CC(=O)N[C@@H](C)c4ccccc4)O[C@H]2CO3)c1	-1.7	-1.1	-0.7
CC=Cc1ccc2n(c1=O)C[C@H]1[C@H](CO)[C@@H](C(=O)N3CCc4ccccc4C3)N(C(=O)C3CCC3)[C@@H]21 (mixture of isomers)	0.1	-4.2	4.3
C[C@H]1CN([C@@H](C)CO)C(=O)c2cc(-c3ccc(C#N)cc3)cnc2O[C@H]1CN(C)C(=O)Nc1ccccc1	1.3	3.1	-1.7
O=C(C[C@@H]1C[C@H]2c3cc(NC(=O)Nc4ccc(C(F)(F)F)cc4)ccc3O[C@H]2[C@@H](CO)O1)NCc1cccnc1	2.4	2.1	0.2
CC(C)NC(=O)N1[C@H](CO)[C@@H]2c3ccccc3N(C(=O)c3ccccc3F)C[C@@H]21	2.4	0.9	1.5
CN(C)C(=O)C[C@@H]1C=C[C@H](NC(=O)c2ccc(F)cc2)[C@@H](CO)O1	0.9	4.1	-3.2
COc1ccc(C#Cc2cnc3c(c2)C(=O)N([C@H](C)CO)C[C@H](C)[C@H](CN(C)C(=O)NC2CCCCC2)O3)cc1OC	-2.6	-1.9	-0.8
COc1cccc(-c2ccc3c(c2)[C@@H]2[C@@H](CCN2C(=O)Cc2ccccc2)[C@H](CO)N3)c1	4.6	11.9	-7.4
O=C(c1cccc(F)c1)N1CC(=O)N2[C@H](CO)[C@H](c3ccc(-c4ccccc4F)cc3)[C@@H]2C1	4.5	7.2	-2.7
C[C@H](CO)N1C[C@H](C)[C@@H](CN(C)Cc2ccc(Cl)c(Cl)c2)OCCCC[C@H](C)Oc2ccc(NS(=O)(=O)c3cccs3)cc2C1=O	0.4	0.9	-0.5
C[C@@H]1CCCn2nncc2COCCNC1=O	6.5	4.9	1.7
Cc1ccc(-c2ccc([C@H]3[C@H](CO)N4C(=O)CN(C(=O)c5ccc(F)cc5)C[C@@H]34)cc2)cc1	10.7	5.0	5.7
N#C[C@@H]1[C@@H](c2ccc(C3=CCCCC3)cc2)[C@H](CO)N1S(=O)(=O)c1ccccc1	0.4	-0.5	0.9
O=C(C1CC1)N1CCCCN2[C@@H](CO)[C@@H](c3ccc(-c4cccc(F)c4)cc3)[C@@H]2C1	10.5	11.9	-1.4
COc1ccc(S(=O)(=O)Nc2cccc3c2O[C@@H](CN(C)S(=O)(=O)c2cn(C)cn2)[C@H](C)CN([C@@H](C)CO)C3=O)cc1	-6.5	-3.8	-2.7
Fc1cccc(CN2[C@@H]3CNC[C@H]2C3c2ccc(-c3cccnc3)cc2)c1 (some centres not stated)	9.7	10.0	-0.3
O=C(c1ccncc1)N1CC[C@@H]2[C@H]1c1cc(-c3ccc(F)cc3)ccc1N[C@@H]2CO	?	.	.
O=C(NC[C@@H]1[C@@H](c2ccccc2)[C@H](CO)N1Cc1cccnc1)c1ccccn1	-0.5	-3.1	2.6
COc1ccc2c3c([nH]c2c1)[C@@H](CO)N(C(=O)Nc1ccc(F)cc1)CC31CN(Cc2ccccc2OC)C1	?	.	.
OC[C@H]1[C@H](c2ccc(C#Cc3ccccc3F)cc2)[C@@H]2CN(CC3CCOCC3)CCCCN12	-12.8*	-30.5*	17.7*
C[C@H](NC(=O)[C@@H]1[C@@H](CO)[C@@H]2Cn3c(cccc3=O)[C@@H]2N1S(C)(=O)=O)c1ccccc1	-7.5	-5.5	-2.0
CCCNC(=O)N1C[C@H](O)COC[C@H]2O[C@@H](CC(=O)N[C@@H]3CCN(Cc4ccccc4)C3)CC[C@@H]21	5.9	6.9	-1.0
C[C@@H]1CN([C@H](C)CO)S(=O)(=O)c2ccc(-c3cncnc3)cc2O[C@H]1CN(C)C(=O)c1cccc(F)c1	2.5	0.3	2.3
CNC[C@@H]1Oc2ncc(Br)cc2C(=O)N([C@@H](C)CO)C[C@@H]1C	-3.6	-3.8	0.2
C[C@H](NC(=O)[C@H]1N[C@H]2c3ccc(-c4cccnc4)c(=O)n3C[C@H]2[C@@H]1CO)c1ccccc1	-2.9	-4.6	1.6
C[C@H](CO)N1C[C@H](C)[C@@H](CN(C)C(=O)Nc2ccnc(N3CCOCC3)c2)OCc2cn(nn2)CCCC1=O	-1.4	-5.6	4.3
CO[C@H]1CC[C@@H]2CCN(C)C(=O)[C@H](C)CN(C)C(=O)c3cc(C#N)ccc3OC[C@H]1O2	0.4	1.6	-1.2
COc1ccc(CN2CC3(CCN(C(=O)Nc4cccc(F)c4)CC3)c3c([nH]c4cc(OC)ccc34)[C@@H]2CO)cc1	-5.7	-6.1	0.3
C[C@H](NC(=O)C[C@@H]1CC[C@@H]2[C@H](COC[C@@H](O)CN2C(=O)Nc2cc(Cl)cc(Cl)c2)O1)c1ccccc1	-0.7	-2.9	2.2
COCC(=O)N1CCC2(CC1)CN(Cc1cccc(OC)c1)[C@H](CO)c1c2c2ccc(OC)cc2n1C	11.0	12.1	-1.0
CCCC#Cc1ccc([C@H]2[C@H]3CN(C(=O)c4ccccn4)CC(=O)N3[C@H]2CO)cc1	7.2	-1.3	8.5
C[C@@H]1CCCCO[C@@H](CN(C)C(=O)c2ccncc2)[C@@H](C)CN([C@@H](C)CO)C(=O)c2cc(NS(=O)(=O)c3cccs3)ccc2O1	-0.4	-0.6	0.2
CO[C@H]1CC[C@@H]2CCOc3ccc(C#N)cc3C(=O)N(C)C[C@@H](OC)[C@H](C)C(=O)N(C)C[C@H]1O2	-2.4	8.4	-10.8
COCC(=O)N1CC(=O)N2[C@H](C1)[C@@H](c1ccc(-c3ccccc3C)cc1)[C@@H]2CO	12.2	-2.0	14.2
CO[C@@H]1CN(C)C(=O)c2ccc(NS(=O)(=O)CC(F)(F)F)cc2OC[C@@H](C)N(CC2CCCCC2)C[C@H]1C	3.7	2.7	1.1
CC=Cc1ccc2n(c1=O)C[C@@H]1[C@@H](CO)[C@H](C(=O)NCC)[C@H]2N1S(=O)(=O)c1cn(C)cn1 (mixture of isomers)	1.1	0.2	0.9
CC(C)C#Cc1ccc([C@@H]2[C@@H](CO)N(C(=O)C3CC3)[C@H]2C#N)cc1	-0.8	-4.2	3.4
CN(C)C(=O)c1cccc(-c2ccccc2[C@@H]2[C@@H](C#N)N(C(=O)C3CCCCC3)[C@@H]2CO)c1	4.0	-5.6	9.6
CCCC(=O)N1CC2(C1)CN(C(=O)Cc1ccccn1)[C@@H](CO)c1[nH]c3cc(OC)ccc3c12	11.1	10.2	0.9

Assay outcomes from PubChem BioAssay.

An excerpt; rates above refer to the full screens.
